# From PubChem
# Vaccinia mCherry: inhibitors of vaccinia virus infection (mCherry reporter signal); Vaccinia virus mCherry reporter infection, fluorescence; about a quarter of the inactives have no number; Potency, µM (highest dose often 36.5 µM), inactives show top-dose activity change, negative = inhibition, actives largely listed as inhibitors; 310,000 compounds, 0.63% hits; AID 720579; active = well fitted inhibition curve with a large enough effect; inconclusive = small, poorly fitted or top-dose-only effect; inactive = no such curve, though single readings can be large or run the other way; tested in A549 cells; also: nearly all actives have a fitted effect of over 35% in size; inactives centre near -10
# Vaccinia Venus: inhibitors of vaccinia virus (Venus reporter) | AID 720580 | Potency, µM (series often up to 36.5 µM), without a hit: at the highest dose activity change, negative = inhibition, actives largely listed as inhibitors | Vaccinia virus Venus reporter expression, fluorescence | 330,000 compounds, 0.46% hits; active means well fitted inhibition curve with a large enough effect; inconclusive means small, poorly fitted or top-dose-only effect; inactive means no such curve, though single readings can be large or run the other way; tested in A549 cells; also: nearly all actives have a fitted effect of over 30% in size; inactives centre near -10
# The depositor's hits bear a star; i = inactive; ? = inconclusive; . = not tested or not shown; [ ] = another dose, or the depositor's remark. % is scaled to controls: 0 for no effect and ±100 for the full control effect; potency is read from the fitted curve at half-maximal effect.
Compound | Vaccinia mCherry | Vaccinia Venus
COc1ccc(C(CNC(=O)c2ccc(F)cc2)N2CCCC2)cc1 (configuration not stated) | 2.6% | -5.4%
COc1ccc(CCNc2ncnc3onc(C)c23)c(OC)c1 | ? | -25.7%
CCOC(=O)N1CCC(N2Cc3cccc(C(=O)NCc4ccccc4OC)c3C2=O)CC1 | i | -12.1%
COc1cc2c(cc1OC)CN(CCC(C)c1ccc(Cl)cc1)CC2 (configuration not stated) | -8.0% | -6.3%
CC(=O)Nc1nc(C)c(C(C)(C)C)s1 | -3.6% | -18.8%
O=C(NNC(=O)c1ccccc1O)c1ccc(Cl)cc1 | -26.2% | -27.4%
O=C1C=C(c2ccc3c(c2)OCO3)C[C@@H](c2ccc(F)cc2)C1 | i | -2.6%
CC(=O)c1cccc(NC(=O)Cn2c(C)c3cnn(-c4ccccc4)c(=O)c3c2C)c1 | 2.8% | 6.6%
Cc1cc(=O)n(-c2ccc(O)cc2)[nH]1 | . | -14.1%
Cc1nc2nc(C)c(CCC(=O)NCCC3=CCCCC3)c(C)n2n1 | -22.3% | -4.9%
CCOC(=O)c1ccccc1NC(=O)CSc1nccn1Cc1ccco1 | -3.0% | -16.1%
COc1ccc(C2Nc3ccccc3C(=O)N2Cc2ccccc2)cc1COc1ccccn1 (configuration not stated) | -13.5% | -2.8%
COc1ccc(Cl)cc1-c1nc(-c2ccncc2)no1 | . | -1.2%
CN1CCN(CCCNC(=O)Nc2ccc([N+](=O)[O-])cc2)CC1 | -9.8% | -12.1%
Cc1cc(Br)ccc1OCC(=O)NNC(=O)CCc1ccccc1 | -29.3% | -13.8%

# The closing four entries of the part above lead into the next.
Compound | Vaccinia mCherry | Vaccinia Venus
COc1ccc(C2Nc3ccccc3C(=O)N2Cc2ccccc2)cc1COc1ccccn1 (configuration not stated) | -13.5% | -2.8%
COc1ccc(Cl)cc1-c1nc(-c2ccncc2)no1 | . | -1.2%
CN1CCN(CCCNC(=O)Nc2ccc([N+](=O)[O-])cc2)CC1 | -9.8% | -12.1%
Cc1cc(Br)ccc1OCC(=O)NNC(=O)CCc1ccccc1 | -29.3% | -13.8%
Cc1ccc(NC(=O)CN(C)S(=O)(=O)c2ccc3c(c2)n(C)c(=O)c(=O)n3C)cc1F | -14.2% | -2.8%
CC(NC(=O)COC(=O)c1nc(Cl)ccc1Cl)c1ccccc1 (configuration not stated) | -4.7% | -10.6%
COc1cccc(NC(=O)c2nn(C34CC5CC(CC(C5)C3)C4)cc2[N+](=O)[O-])c1 | -7.4% | -28.8%
O=C(c1cccc(F)c1)N1CCN(S(=O)(=O)c2ccc(C(F)(F)F)cc2)CC1 | -12.0% | -0.5%
Cc1cc(C)cc(OC2CCCCC2NS(=O)(=O)c2ccccc2)c1 (configuration not stated) | -4.6% | -23.1%
O=C1NC(=S)SC1=C1CCCC1 | -14.0%[1.46 µM] | -2.0%
Cc1oc2c(c(C)cc3oc(=O)c(CC(=O)NCc4ccc(F)cc4)c(C)c32)c1C | -8.2% | -8.7%
CC(C)NC(=O)C1(C)CSCC(=O)N1C1CC1 (configuration not stated) | -9.6% | -11.3%
Cc1ccc(SC2=C(N(C)C)C(=O)c3ccccc3C2=O)cc1 | -11.4% | 1.3%
COCCn1nnnc1C(c1cc2cc(OC)c(OC)cc2[nH]c1=O)N1CCN(c2ccc(O)cc2)CC1 (configuration not stated) | -6.1% | -8.6%
CCCS(=O)(=O)NC(=O)C1(C)CCCN(C(=O)c2cc(C)nn2C(C)(C)C)C1 (configuration not stated) | -28.3% | 0.2%
CCn1c(SCC(=O)c2ccccc2)nnc1-c1cccc(Cl)c1 | 1.8% | -1.6%
COc1ccc(CCNC(=O)c2ccc(-n3c(C)cc4c3CCC(C)C4)cc2)cc1OC (configuration not stated) | -10.8% | -12.5%
CC(=O)Nc1nc2ccc(C(=O)NC3CCCCC3)cc2s1 | . | -14.6%
CN(Cc1cn(C)c2ccccc12)C(=S)Nc1cc(F)cc(F)c1 | -15.2% | -4.8%
Cc1ccc(-c2cc(-c3ccccc3)nc(Cl)n2)cc1 | -6.2% | -9.2%
COc1ccc([C@H]2N[C@]3(CCCN(Cc4ccc(Br)cc4)C3=O)[C@H]3C(=O)N(Cc4ccccc4)C(=O)[C@@H]23)cc1 | i | -12.2%
COc1ccccc1NC(=S)N1CCNC(=O)C1CC(=O)Nc1cccc(C)c1 (configuration not stated) | i[7.34 µM] | 0.0%[7.34 µM]
Cc1ccccc1N=CC=C1OC(C)(C)C(C)(C)O1 | -10.4% | -10.5%
CC1CN(C(=O)c2ccccc2NS(=O)(=O)c2ccc(Cl)cc2)CC(C)O1 (configuration not stated) | i | 0.4%
Cc1cc(C(=O)NC2CCCCCC2)c2ccccc2n1 | i | -9.7%
CC1(C)CC(NS(=O)(=O)OCC(Cl)(Cl)Cl)c2cc(C#N)ccc2O1 (configuration not stated) | -24.3% | ?
CCOC(=O)N1CCN(C(=O)CCc2nc3sc4c(c3c(=O)[nH]2)CCCC4)CC1 | i | -6.6%
N#Cc1nc(-c2ccccc2F)oc1NCc1ccccc1 | ? | -16.6%
COc1c(C)cc(C(=O)C2CCCN(C(=O)c3cccc(F)c3)C2)cc1C (configuration not stated) | i | -4.8%
CCCN(CC(=O)Nc1ccccc1C)C(=O)C1CC(=O)N(c2ccccc2OCC)C1 (configuration not stated) | -8.4% | -5.6%
CCOC(=O)c1c(NC(=O)CN(CC)CC)sc2c1CCN(C(=O)OCC)C2 | ? | ?
CCc1nnc(NC(=O)CCC(=O)N2CCN(Cc3ccc(Cl)cc3)CC2)s1 | . | ?
N#C/C(=N/O)c1nc(-c2ccc(F)cc2)cs1 | -8.6% | 0.6%
Cn1c(NCCOc2ccccc2Cl)nc2cc(-c3ccc(F)cc3)sc2c1=O | i | -9.1%
Cc1ccc(NC(=O)CSc2nnc(-c3ccco3)n2N)cc1F | -4.1%[7.34 µM] | 0.0%[7.34 µM]
CC1CCCC(NC(=O)COC(=O)Cc2cn3ccsc3n2)C1C (configuration not stated) | -5.4% | 1.9%
CCC(=O)N1CCCC1(C)C(=O)Nc1ccc2scnc2c1 (configuration not stated) | i | -9.9%
CN(Cc1ccccc1F)c1cc2c(c3c1ccn3C)C1CCC2C1 (configuration not stated) | 16.2% | -1.2%
CC1CCc2[nH]c3ccc(C(=O)NCC4CCCO4)cc3c2C1 (configuration not stated) | i | -23.3%
COc1ccc(C2(CCN=Cc3ccc(N(C)C)cc3)CCOC(C)(C)C2)cc1 (configuration not stated) | -11.7% | -15.5%
COc1ccc(C2C(C(C)=O)=C(O)C(=O)N2CCCn2ccnc2)cc1 (configuration not stated) | i | -4.8%
Cc1cccc(-n2ncc3c2CCCC3NC(=O)CCN2Cc3ccccc3C2=O)c1C (configuration not stated) | -11.1% | -25.8%
CCCCOc1ccc(S(=O)(=O)N2CCN(c3ccc(N4CCN(CC)CC4)nn3)CC2)cc1 | -2.4% | -19.6%
FC(F)(F)c1ccc(N2CCN(c3ncnc4c3nnn4Cc3ccccc3Cl)CC2)cc1 | . | -8.0%
O=C(CCc1nnc(COc2ccccc2)o1)NCc1ccc(Cl)s1 | -2.8% | -11.4%
COc1ccc(CCNC(=O)COC(=O)/C=C/c2cc(OC)ccc2OC)cc1 | i | -5.2%
CC(C)Cc1nnc(NC(=O)CCC(=O)N2CCN(S(=O)(=O)c3ccccc3)CC2)s1 | -15.3% | -19.2%
CCc1ccc(N(C(=O)c2ccoc2C)C(C(=O)NC2CCCC2)c2ccc(OC)cc2)cc1 (configuration not stated) | i | 0.0%
COc1ccc(CCNC(=O)C2CC(c3cc(C(F)(F)F)cc(C(F)(F)F)c3)=NO2)cc1 (configuration not stated) | -13.2% | -7.4%
CCOC(=O)C(NS(=O)(=O)c1ccc(Br)cc1)C(C)C (configuration not stated) | -4.8% | -10.7%
Cc1ccccc1Oc1nc(-c2ccccn2)nc2ccccc12 | -22.6% | ?
CCOc1ccc(NC(=O)C2CCCN(S(=O)(=O)c3c(C)noc3/C=C/N(C)C)C2)cc1 (configuration not stated) | -8.8% | -4.5%
O=[N+]([O-])c1cccnc1S(=O)(=O)c1ccccc1 | -20.4% | -6.3%
Cc1ccc2oc(-c3cccc(NC(=S)NC(=O)c4cccs4)c3)nc2c1 | -12.1% | -5.3%
COc1cc2c(cc1OC)CN(C(=O)CCNS(=O)(=O)c1ccccc1F)CC2 | -17.6% | -10.3%
O=S(=O)(Nc1ccc2c(c1)OCCO2)c1c(F)cccc1F | -2.9% | -9.8%
CCCCOC(=O)Cn1c(=N)n(CCN(CC)CC)c2ccccc21 | i | -10.8%
COc1ccc(NC(=O)c2cc(C3CCCCN3C(=O)c3ccccc3)on2)c(C)c1 (configuration not stated) | i | -17.3%
COc1ccc(NC(=O)c2nnn(Cc3ccccc3C)c2N)c(OC)c1 | -1.6% | -11.1%
COc1ccc(-n2nc(C(=O)NCC(=O)N3CCOCC3)c3ccccc3c2=O)cc1OC | -11.7% | -4.8%
COc1ccc(OCCSc2nc(C)nc3ccccc23)cc1 | -10.5% | -15.8%
CC(=O)c1ccc(OCCCC(=O)Nc2cc(Cl)ccc2-n2cncn2)cc1 | -23.7% | -16.4%
Cc1ccccc1P(=O)(c1ccccc1)c1ccccc1C | i | -14.7%
O=C(CSCc1c(Cl)cccc1Cl)NN=C1CCCC1 | -6.6% | -7.0%

# (further entries)
Compound | Vaccinia mCherry | Vaccinia Venus
O=C(N/N=C/c1cccc(O)c1)c1ccc(COc2ccccc2Br)cc1 | -4.6% | -13.5%
CC(C)CC(N)c1csc(NC(=O)NCCc2ccccc2)n1 (configuration not stated) | 18.7% | -13.4%
COc1ccc(OCCN2CCC(C(=O)NC(c3ccc(Cl)cc3)c3ncccc3C)CC2)cc1 (configuration not stated) | 10.2% | -13.6%
COc1ccc(NC(=O)C2CCCN(C(=O)c3cnn(-c4ccccc4)c3-n3cccc3)C2)cc1 (configuration not stated) | -28.8% | -23.1%
Cc1ccnc(NS(=O)(=O)c2ccc3ccccc3c2)n1 | -20.1% | -7.6%
CC(NC(=O)C1CCC(CNc2c(N3CCCCC3)c(=O)c2=O)CC1)c1ccccc1 (configuration not stated) | 10.8% | 12.1%
Cc1ccc(NC(=O)c2nc(S(C)(=O)=O)ncc2N(Cc2cccc(F)c2)Cc2ccco2)cc1C | -11.8% | -9.4%
COC(=O)c1ccc(/C=N/OCC(=O)NC2CCCCCCC2)cc1 | -13.2% | -10.7%
O=C(Nc1cccc(NC(=O)c2ccccc2F)c1)c1ccccc1 | -6.7% | 1.3%
COc1cccc(NC(=O)COC(=O)CCOc2ccccc2OC)c1 | 4.4% | -1.7%
O=C(Cn1cc(SCc2ccc(C(F)(F)F)cc2)c2ccccc21)N1CCCC1 | -25.5% | -26.2%
COc1ccnc(N=CNOCc2cccc(C(F)(F)F)c2)c1C#N | i | -2.9%
Cc1ccc(NC(=O)C(C)OC(=O)/C=C/c2ccccc2)cc1S(=O)(=O)N1CCOCC1 (configuration not stated) | -26.3% | -1.8%
Cc1ccc2c(c1)-c1[nH]c(=S)ncc1CS2 | -8.3% | -17.3%
CC(C)c1ccc(C(=O)N2CCCCC2c2cc(C(=O)NCc3cccnc3)no2)cc1 (configuration not stated) | -12.4% | -0.6%
COc1ccc(NC(=O)C23CC4CC(C2)CC(n2cnc(Br)n2)(C4)C3)c(OC)c1 | -7.3% | ?
COCCNC(=O)C(c1cccs1)N(Cc1cccs1)C(=O)Cn1nnc2ccccc21 (configuration not stated) | -14.0% | -8.8%
Cc1ccc(SCc2[nH]nc3c2C2(C(=O)N(C)c4ccccc42)C(C#N)=C(N)O3)cc1 (configuration not stated) | -28.6% | ?
Cc1ccccc1C(=O)Oc1cccc(Nc2ncnc3ccccc23)c1 | ? | ?
Cc1cccc(N2CCN(C(=O)c3ccc4c(c3)c(C)c(C)n4C)CC2C)c1 (configuration not stated) | -7.9% | -3.7%
Cc1ccc(C2CC(c3ccc(Cl)cc3)=NNC2=O)cc1 (configuration not stated) | . | -28.5%
C/C(=N\Nc1nccnc1Cl)c1c(F)c(F)c(F)c(F)c1F | -0.6% | 8.3%
COC(=O)[C@@]1(Cc2ccccc2)[C@H]2C(=O)N(Cc3ccccc3)C(=O)[C@H]2[C@H]2CN=C(SCC3CC3)N21 | i | ?
C=CCOc1cccc(C2C(C(=O)c3ccc(C)o3)=C(O)C(=O)N2c2nccs2)c1 (configuration not stated) | i | -3.8%
CCOC(=O)C1=C(COC(=O)Cc2ccc(Br)cc2)NC(=O)NC1C (configuration not stated) | -8.6% | -0.8%
CCOC(=O)CSc1nc2cccnc2n1-c1ccc(F)cc1 | i | -12.9%
Cc1ccc2c(=O)c(C(=O)c3ccccc3)cn(CC(=O)NCc3ccccc3)c2n1 | -8.3% | -0.2%
C/C(CC(=O)Nc1ccc2ccccc2c1)=N\NC(=O)c1ccc(O)c(O)c1 | ? | -20.9%
NC(=O)Cn1nnc(-c2ccccc2NC(=O)c2cnccn2)n1 | 10.7% | 12.8%
COCCNC(=O)c1ccc(CS(=O)(=O)c2c(Cl)cccc2Cl)o1 | -10.3% | -4.1%
CCOC(=O)[C@@H]1[C@H]2COc3ccccc3[C@@H]2N2C(=O)N(c3ccc(Cl)cc3)C(=O)[C@@]12C | i | -16.9%
COc1ccc(CCNC(=O)c2ccc(CNS(=O)(=O)c3cccc(Cl)c3)cc2)cc1OC | -17.3% | -28.4%
